MT1-MMP act inh = inhibitors of human MT1-MMP activation | P50281 | HT1080 RFP-PRO-GFP cells, GFP/RFP ratio fluorescence, overnight; percent of plate control window, DMSO zero | GFP/RFP ratio change, % at 20 µM | 0.061% of 360,000 active;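 active means GFP/RFP ratio change of at least 30% with cell ATP level not reduced by more than half and red fluorescence within 50% of control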; further: strong numbers were not always called active
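Compound: 20 µM single dose, 1% DMSO / System: HT1080 RFP-PRO-GFP cells / Controls: DMSO and RFP-L50D-GFP cell wells / Read-out basis: GFP/RFP fluorescence ratio / Schedule: overnight compound exposure at 37 °C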
UUG fidelity = alters start codon recognition fidelity in yeast | S. cerevisiae UUG-firefly luciferase reporter, luminescence/redox ratio | activity score, % at 18.7 µM | 0.13% of 350,000 active | AID 602363;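 active means replicate mean at a twofold rise or more, about +100% in these data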;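 further: firefly luciferase made from a UUG start codon reports start codon fidelity; reporter light over untreated wells divided by growth signal over untreated wells; some hits fall short of that in this replicate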
PABP polyA inh = PABP-poly(A) binding inhibition | 1% of 290,000 active | P11940 | PABP-poly(A) RNA binding, fluorescence polarization | inhibition, % at 35 µM | AID 2014;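 active means 50% or more with normal probe brightness, or confirmed in later tests; inconclusive means above 50% with abnormal brightness, or retests that disagree; inactive means below 50% or failed in later tests; about a fifth of its hits are not listed in these tables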;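 further: calls also rest on retests at 20 µM and on dose response follow-up; controls were probe without protein and protein plus probe with vehicle; some compounds called inactive have numbers as strong as hits; many hits fall short of the cut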
Target sequence (P11940 whole entry, looked up): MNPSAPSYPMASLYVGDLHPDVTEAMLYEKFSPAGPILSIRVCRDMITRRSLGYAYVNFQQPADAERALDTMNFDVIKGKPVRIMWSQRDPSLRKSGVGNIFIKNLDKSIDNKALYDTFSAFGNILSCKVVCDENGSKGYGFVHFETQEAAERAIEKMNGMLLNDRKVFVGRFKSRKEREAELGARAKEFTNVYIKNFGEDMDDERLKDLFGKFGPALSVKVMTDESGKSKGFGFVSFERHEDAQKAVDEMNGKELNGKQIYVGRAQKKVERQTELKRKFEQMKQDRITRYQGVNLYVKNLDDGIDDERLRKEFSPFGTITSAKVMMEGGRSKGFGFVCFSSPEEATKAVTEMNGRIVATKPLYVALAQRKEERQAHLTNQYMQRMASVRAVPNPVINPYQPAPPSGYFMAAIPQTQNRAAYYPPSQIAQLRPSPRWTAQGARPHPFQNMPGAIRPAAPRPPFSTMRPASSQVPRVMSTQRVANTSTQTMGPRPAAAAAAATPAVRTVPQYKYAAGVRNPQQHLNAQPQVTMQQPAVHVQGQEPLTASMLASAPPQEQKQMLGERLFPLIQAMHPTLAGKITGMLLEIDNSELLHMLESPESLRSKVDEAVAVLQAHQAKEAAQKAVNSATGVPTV
CSC inhib = blocks cancer stem cells; 1.1% of 300,000 active; inhibition, % at 7.5 µM; cancer stem cell-like cells viability, luminescence;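 active means mean at 75% or more and at least half the replicates too; inconclusive means mean and replicates disagree; tested in HMLE shEcad cells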;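 further: 0% = median of negative and 100% = median of positive control wells; the first replicate is given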
eIF4H inh = inhibitors of RNA binding by human eIF4H. eIF4H fluorescence polarization binding assay. AID 2012. inhibition, % at 35 µM. 0.94% of 290,000 active. Q15056;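 active means 50% or more with normal probe brightness, or confirmed in later tests; inconclusive means above 50% with abnormal brightness, or retests that disagree; inactive means below 50% or failed in later tests; about a fifth of its hits are not listed in these tables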;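 further: calls also rest on retests at 20 µM and on dose response follow-up; 0% = protein and probe with vehicle and 100% = probe without protein; strong numbers were not always called active; many hits fall short of the cut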
Env fusion inh = HIV envelope-mediated fusion inhibition; HeLa-JRFL Env/CEM21 cell fusion, luciferase; inhibition, % at 12.3 µM; 1.1% of 360,000 active; AID 651610;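 active means mean replicate inhibition score of at least 50 and every replicate individually at or above 50; inconclusive means only one of the two criteria met; inactive means mean below 50 and not all replicates reaching 50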;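 further: 0% = plate neutral controls and 100% = maraviroc near 300 nM; one replicate is shown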
Rce1 inh = yeast Ras-converting enzyme inhibition; 0.27% of 290,000 active; calls only; Q03530; yeast membranes, quenched prenylated peptide cleavage fluorescence;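 active means fall in fluorescence gain of 50% or more versus controls, with final raw signal at or below 3038400; inconclusive means same 50% fall but final raw signal above 3038400; inactive means fall in fluorescence gain under 50%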;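 further: plate controls were neutral control wells for no effect and wells lacking membranes for full effect; tested at 10 µM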
Target sequence (Q03530 whole entry, looked up): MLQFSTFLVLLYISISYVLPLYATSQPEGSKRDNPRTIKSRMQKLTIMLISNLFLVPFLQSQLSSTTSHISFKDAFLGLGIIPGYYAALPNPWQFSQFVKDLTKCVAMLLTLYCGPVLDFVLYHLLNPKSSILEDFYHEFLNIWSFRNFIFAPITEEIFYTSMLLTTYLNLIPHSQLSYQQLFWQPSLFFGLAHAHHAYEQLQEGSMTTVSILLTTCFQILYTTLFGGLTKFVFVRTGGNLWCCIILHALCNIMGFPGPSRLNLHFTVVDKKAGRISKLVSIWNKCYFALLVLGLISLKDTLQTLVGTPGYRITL
MT1-MMP act inh RFP = recorded beside MT1-MMP act inh, whose call it bears; RFP signal change, %; measured here: RFP expression control read;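 0 = vehicle wells; hits needed this value within 50% of zero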
The depositor's hits bear a star; i = inactive; ? = inconclusive; . = no result given.

Order of values – MT1-MMP act inh	MT1-MMP act inh RFP	UUG fidelity	PABP polyA inh	CSC inhib	eIF4H inh	Env fusion inh	Rce1 inh
1. CC(C)COc1ccc(C(=O)OCC(=O)NCCC2=CCCCC2)cc1
    -5	-3	-13	.	-3	.	.	i
2. CCOc1c(Cl)cc(C(=O)Nc2cccc(C(=O)O)c2)cc1Cl
    3	3	.	-3	-8	-13	-32	i
3. CC(C)(C)S(=O)(=O)c1cnc2c(S(=O)(=O)c3ccccc3)cnn2c1N
    4	0	-5	5	1	4	3	i
4. Cc1cc(=O)n2nc(N3CCCC(C(=O)N4CCN(C)CC4)C3)sc2n1 (stereo not given)
    3	0	-14	6	-19	-3	.	i
5. O=C(Nc1nnc(CSCc2ccc(F)cc2)s1)c1ccc([N+](=O)[O-])cc1
    5	-14	4	-1	1	3	.	i
6. Cc1cc(SCC(=O)NC2CCCC2)nc2ccccc12
    -2	4	-1	1	-13	-7	0	i
7. O=C(N/N=C/C1C(c2ccccc2)C1(Cl)Cl)c1cccc(Cl)c1 (stereo not given)
    1	4	-15	8	-3	-2	-13	i
8. Cn1c(CC(=O)Nc2ccc(F)cc2)nnc1SCC(=O)Nc1nncs1
    1	2	-17	13	-2	1	6	i
9. CC(=O)N1CCOCCOCCN(C(C)=O)CCOCCOCC1
    3	7	.	2	-2	6	-7	.
10. Cn1c(=O)[nH]c(=O)c2cc(C(=O)c3cc(F)ccc3O)cnc21
    0	-1	.	20	11	0	-7	i
11. CC1=NN(c2ccc(C)cc2)C(=O)/C1=C\c1ccc(Br)s1
    -1	-2	.	7	-9	7	-16	i
12. C/C(=N\Nc1cc(Cl)nc(C)n1)c1ccccc1
    21	-1	-4	0	-2	1	-29	i
13. COc1cccc(Nc2nc3ccccc3n3nnnc23)c1
    -1	4	-6	1	-10	6	-419	i
14. CCC(=O)Nc1c2c(nn1-c1ccc(OC)cc1)CSC2
    -3	0	-16	-11	1	-13	1	i
15. COC(=O)c1cn(C)c2ccc(S(=O)(=O)N3CCCC3)cc2c1=O
    6	3	.	.	-15	.	-93	i
16. O=S(=O)(c1cccs1)N1CCN(CCOc2ccc(Cl)cc2)CC1
    -18	-26	.	.	24	.	5	.
17. CCN1CCN(C(=O)CN(CC)S(=O)(=O)c2ccc3ccccc3c2)CC1
    0	-5	-15	-4	-10	-9	5	i
18. Cc1ccc(C(O)c2ncc(-c3cccc(C(F)(F)F)c3)[nH]2)cc1 (stereo not given)
    6	-11	-13	.	.	.	12	.
19. Cc1nnnn1CC(=O)Nc1cccc([N+](=O)[O-])c1
    -2	-2	.	-6	0	-6	3	i
20. CCc1cc2c3c(c(=O)oc2cc1OCC(=O)OC)CCCC3
    5	0	2	-5	-9	0	12	i
21. CC1(C)CC(=O)C=C(NCc2cccc(C(F)(F)F)c2)C1
    -2	-1	.	3	-20	2	-2	i
22. Cc1onc(-c2c(Cl)cccc2Cl)c1C(=O)N1CCCCC1
    -3	2	-8	3	1	-14	5	i
23. O=C(O)c1ccc(NCc2cccnc2)c([N+](=O)[O-])c1
    2	0	-11	-4	-10	-8	1	.
24. Cc1ccc(OCCSc2nnc(-c3ccncc3)n2C)cc1
    8	6	-19	-7	14	-3	12	i
25. CCOC(=O)Cc1csc(NC(=O)Cc2ccc(Br)cc2)n1
    -1	-6	.	-9	2	-9	9	i
26. O=C(COC(=O)c1ccc(Br)o1)Nc1nc2c(F)c(F)c(F)cc2s1
    0	4	-7	-5	-5	9	-9	i
27. Nc1c(-c2ccccc2)nc(Cl)nc1-c1ccccc1
    0	-6	133*	-4	0	-6	16	i
28. Cc1ccc(CN2CC(C(=O)NC(c3nc4ccccc4[nH]3)C(C)C)CC2=O)cc1 (stereo not given)
    -6	0	-18	.	-14	.	.	.
29. Fc1cccc(-c2oncc2-c2nnnn2-c2ccc(Cl)cc2)c1
    7	5	-3	5	-5	-15	-85	i
30. Cc1ccc(CNC(=O)N[C@@H](Cc2ccccc2)C(=O)O)cc1
    3	7	-3	2	-8	-5	.	i
31. COc1cc(OC)c(C(=O)Nc2cc(Cl)ccc2-n2cncn2)cc1OC
    7	6	-9	.	-1	.	10	i
32. Cc1ccc(-n2nc(C)c3c2NC2=C(C(=O)CC(C)(C)C2)C3c2ccccc2OCC(=O)O)cc1 (stereo not given)
    6	0	.	3	-8	-5	10	i
33. Cc1cc(=O)[nH]c(-n2nc(C)cc2C)n1
    5	0	-47	3	.	-2	.	i
34. Cc1ccc(-n2c(C)cc(C)c(C#N)c2=O)cc1Cl
    -2	0	-12	-5	5	0	-19	i
35. C=CCc1ccccc1OCC(O)CN1CCN(c2ccccc2F)CC1 (stereo not given)
    1	3	-16	-6	6	-7	.	i
36. COC(=O)C1CCN(C2=C(NS(=O)(=O)c3ccc(Cl)cc3)C(=O)c3ccccc3C2=O)CC1
    1	-4	-13	16	16	-7	-7	i
37. O=C(c1cccnc1)N1C2C=CC(C2)C1(C(F)(F)F)C(F)(F)F (stereo not given)
    -3	-2	13	2	.	0	.	.
38. CCNc1ccc(C2(O)C(=O)c3ccccc3C2=O)cc1
    -1	-2	.	4	-9	-1	-19	i
39. CC(=O)COc1ncn(-c2ccccc2)n1
    5	5	0	1	-6	1	.	i
40. COCCNC(=O)CCCn1c(=O)c2cc(OC)c(OC)cc2n(CC(=O)c2cccc(OC)c2)c1=O
    -1	2	.	6	-4	1	4	i
41. COc1ccc(S(=O)(=O)N(C)CC(=O)NCc2ccccn2)cc1
    -2	-1	-34	9	-5	-1	-1	i
42. O=C(/C=C/c1cccnc1)/C=C/c1cccnc1
    -32	-28	-14	7	.	3	2	.
43. COc1cc(/C=C/C(=O)OCC(=O)c2c(N)n(C)c(=O)n(C)c2=O)ccc1OC(F)F
    -2	-2	.	-6	-1	-1	10	i
44. Cc1ccc(N/C=C/C(=O)C(C)(C)C)c(O)c1
    2	2	-23	-6	9	-2	.	i
45. CCCC(=O)N1CCC1(C)C(=O)NCc1ccccc1SC (stereo not given)
    6	6	-18	.	.	.	-1	.
46. Cc1cccc(NC(=S)N(CCN(C)C)Cc2cc3cccc(C)c3[nH]c2=O)c1
    3	0	.	-4	-8	2	-12	i
47. CCOc1ccccc1C(=O)Nc1cc(C(=O)NCC(C)C)ccc1Cl
    .	.	.	1	-9	9	.	i
48. COc1ccc(C(=S)Nc2ccccc2)cc1
    -2	1	-25	-2	13	0	.	i
49. CCCCN(Cc1ccco1)C(=O)C1CCCN(c2ncnc3c2nc2n3CCCCC2)C1 (stereo not given)
    0	-11	-3	-2	-3	-1	8	i
50. O=C1CCc2cc(S(=O)(=O)NCCc3ccc(Cl)cc3)cc3c2N1CC3
    2	0	-4	.	.	.	3	i
51. CCN(CC)c1nc2ccccc2nc1C(C#N)C(=O)NCCCOC (stereo not given)
    -2	-2	-8	5	-12	21	.	i
52. CCOC(=O)c1sc(N2N=C(C)/C(=C\c3ccc(OCC(=O)OC)cc3)C2=O)nc1C
    18	13	-24	-6	4	6	-29	i
53. CCOC(=O)c1ccc(NC(=O)C2(c3ccccc3)CCCC2)cc1
    -7	-10	-21	-1	42	-10	-28	i
54. COc1ccc(C(=O)Nc2nnc(Cc3ccccc3)s2)c(OC)c1
    3	-4	-1	6	42	-2	-11	.
55. CC1(C)CC(=O)C2=C(C1)NC(=O)CC2c1cccc(F)c1 (stereo not given)
    0	2	-10	5	-10	1	.	i
56. COc1ccc(C2CC(c3cccs3)=NN2C(=S)Nc2ccccc2)cc1OC (stereo not given)
    -1	0	.	7	.	-10	.	i
57. Cc1ccc(CN(C(=O)c2ccco2)C(C(=O)NC2CCCC2)c2ccc(N3CCOCC3)cc2)cc1 (stereo not given)
    1	-1	2	-3	-8	2	.	i
58. O=C(CSc1nnc(Cn2c(=O)sc3ccccc32)n1-c1ccccc1)N1CCCCCC1
    1	5	4	5	-34	-5	29	.
59. O=C(NS(=O)(=O)Oc1cccc(F)c1)OC[C@@H]1CCCN2CCCCC12 (stereo not given in full)
    -4	-1	-5	1	.	-2	2	i
60. OC(c1ccc(F)c(F)c1)c1nc(-c2ccccc2)cs1 (stereo not given)
    1	1	-11	.	.	.	0	.

Given with one line to a screen: two of the compounds above.
9. CC(=O)N1CCOCCOCCN(C(C)=O)CCOCCOCC1
10. Cn1c(=O)[nH]c(=O)c2cc(C(=O)c3cc(F)ccc3O)cnc21
Screen / compound no.	9	10
MT1-MMP act inh	3	0
MT1-MMP act inh RFP	7	-1
UUG fidelity	.	.
PABP polyA inh	2	20
CSC inhib	-2	11
eIF4H inh	6	0
Env fusion inh	-7	-7
Rce1 inh	.	i

Next part.
Order of values – MT1-MMP act inh	MT1-MMP act inh RFP	UUG fidelity	PABP polyA inh	CSC inhib	eIF4H inh	Env fusion inh	Rce1 inh
61. CCCCN(C)CCCNC(=O)c1cc(Nc2ccc(OC)c(OC)c2)nc2ccccc12
    -3	0	9	-12	0	-5	27	i
62. CN(Cc1ccccc1)C(=O)c1cc(S(=O)(=O)N2CCOCC2)cn1C
    -2	2	-11	2	-4	-4	-3	i
63. CCCCCCc1c(C)nc(-n2[nH]c(C)c(CCO)c2=O)[nH]c1=O
    6	6	.	6	-6	5	-3	i
64. Cc1noc(C)c1-c1nnc(-c2ccc(C(F)(F)F)cc2)o1
    4	10	.	3	6	-2	-12	i
65. Cc1c(C(=O)O)sc(=S)n1CCOc1ccccc1
    2	-3	-27	0	0	1	.	i
66. Cc1cc(NC(=O)c2cccs2)ncc1NC(=O)c1cccc(F)c1
    -3	-4	.	9	.	18	-19	i
67. Cc1cnc(C(=O)OCC(=O)c2cccc3ccccc23)cn1
    1	3	.	.	4	.	2	i
68. COc1ccc(C(O)c2ncc(-c3ccccc3)[nH]2)c(OC)c1 (stereo not given)
    3	5	-22	.	.	.	13	.
69. COc1cc([N+](=O)[O-])ccc1N/C=C/C(=O)c1cccs1
    -139	2	-14	?	25	?	-120	i
70. COc1ccc(N(C(C)C(=O)N/N=C(\C)C(C)(C)C)S(C)(=O)=O)cc1 (stereo not given)
    0	3	.	5	1	-1	16	i
71. COCCN(C(=O)COC(=O)CC1CCCCC1)c1c(N)n(Cc2ccccc2)c(=O)[nH]c1=O
    1	1	-5	4	-6	-4	3	i
72. O=C(CSc1nc2ccccc2n1CC(=O)N1CCCC1)Nc1ccc2c(c1)OCO2
    7	-5	-11	6	.	-7	-84	i
73. O=C(Nc1nnc(-c2ccccc2)o1)C1CCCN1S(=O)(=O)c1cccs1 (stereo not given)
    7	5	-21	.	-1	.	-11	i
74. Cc1ccc(C(=O)NNC(=O)c2ccc3ccccc3c2O)cc1
    3	4	-21	10	20	6	3	i
75. Cc1ccc(C(C)C)c(OCC(=O)N2CCOCC2)c1
    -8	0	-20	-8	.	0	-31	i
76. O=C(NCCc1ccccc1F)/C(=C/c1cccnc1)NC(=O)c1ccccc1
    3	0	.	-9	-42	0	-32	i
77. CS(=O)(=O)NCCNc1ccc(C(F)(F)F)cc1[N+](=O)[O-]
    0	-1	9	-5	.	-2	-13	i
78. Clc1ccc(-c2csc(=Nc3cccnc3)n2CCCn2ccnc2)cc1Cl
    -20	-18	.	13	9	15	43	i
79. Clc1ccc(Cn2c(-c3cccnc3Cl)nc3ccccc32)cc1
    -4	-1	-16	0	-11	2	.	i
80. CCN1C(=O)CC(c2ccc(OC(C)C)cc2)C1=O (stereo not given)
    -4	-2	-11	13	-2	10	5	i
81. O=C(O)C(=Cc1ccccc1)Cc1ccccc1
    4	5	-1	.	.	.	-2	.
82. CCOC(=O)c1cnc(SCc2nc(N)nc(Nc3ccccc3)n2)nc1N
    -5	-10	-14	-4	1	-6	-35	i
83. COc1ccccc1-c1cc2c(c3c1ccn3C)C1CCC2O1 (stereo not given)
    0	2	-2	.	.	.	37	.

Bioassay records (PubChem BioAssay)
